# Ba CapD inh – CapD enzyme inhibition; z-score (concentration not given with the values); 0.23% of 140,000 active; purified CapD enzyme, fluorescence intensity read-out; stronger effect = lower value; some hits fall short of the stated cut;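 active = z-score under -4 in either of two replicates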;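 also: stock transfer was 100 nL into about 40 µL; score is relative to mean and spread of the plate; one replicate is shown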
# AID504770 – growth inhibitors of E. coli YBA685 in a screen for V. cholerae RctB (chromosome II replication) inhibitors; 0.27% of 130,000 active; E. coli YBA685 rctB-dependent plasmid, OD600 growth, 3 h; stronger effect = lower value; AID 504770; z-score (test concentration not listed);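 active = z-score under -2 on both plates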;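 also: wells of about 30 µL received 100 nL stock; score is relative to mean and SD of the test wells; the first replicate is given; strong numbers were not always called active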
# * = called active by the depositor; nt = not tested or not shown.
# Start of the data: the first three records, ahead of the listing:
SMILES,Ba CapD inh,AID504770
CC1CCCCC1NC(=O)C1CCCN(c2nc3ccccc3o2)C1 (stereo not given),0.66,0.65
CCN(CC)c1ccc(C=C2C(=O)N(C)C(=O)N(C)C2=O)c(OCc2ccc(Cl)cc2Cl)c1,-0.075,0.1
NC(=O)C1CCN(c2cc(C(F)(F)F)ccn2)CC1,63.5,0.25

# Results (from the top)
SMILES,Ba CapD inh,AID504770
CC1CCCCC1NC(=O)C1CCCN(c2nc3ccccc3o2)C1 (stereo not given),0.66,0.65
CCN(CC)c1ccc(C=C2C(=O)N(C)C(=O)N(C)C2=O)c(OCc2ccc(Cl)cc2Cl)c1,-0.075,0.1
NC(=O)C1CCN(c2cc(C(F)(F)F)ccn2)CC1,63.5,0.25
O=C(c1ccco1)N(c1ccccn1)C1CCCCC1,0.215,0.05
CC(C)C(=O)Nc1scc(-c2ccccc2)c1C(=O)O,-0.5,-0.05
CCn1cc(/C=C(\NC(=O)c2ccccc2)C(=O)N2CCCC2)c2ccccc21,1.18,-0.15
Cc1ccc(-n2c(C)c(Br)c3c2CCCC3=O)cc1,nt,-0.2
CC(C)(C)OC(=O)N1CCN(S(=O)(=O)c2ccc(Cl)cc2)CC1,-0.135,-0.55
O=C1N=c2ccccc2=C1c1s/c(=N/N=C2\C(=O)Nc3ccccc32)n(-c2ccc(O)cc2)c1O,-0.205,1.1
c1ccc(-c2nc3ccccn3c2Nc2ccc3c(c2)OCO3)cc1,-1.56,2.05
CC(=O)/C(N=Nc1ccc(C)cc1[N+](=O)[O-])=C(\C)O,-0.19,nt
Fc1ccc(Sc2snnc2-c2ccc(Cl)cc2Cl)cc1,0.17,nt
CCCSc1nnc(Nc2ccccc2F)s1,nt,-1.15
CCOc1ccc(N=C2C(=O)N(CN3CCCCC3)c3ccccc32)cc1,0.065,-0.55
CC1Cc2cc(S(=O)(=O)NCc3ccccc3)ccc2N1C(=O)C1CC1 (stereo not given),-0.06,0.9
CCOc1cc(/C=N/n2c(C)nnc2-n2nc(C)cc2C)cc(Br)c1O,0.235,-0.95
CCCN1CCc2nc(N3CCOCC3)ncc2C1,1.69,1.7
COc1ccc(C(=O)OCC(=O)N(C2CCCCC2)C2CCS(=O)(=O)C2)c(O)c1 (stereo not given),nt,-0.2
CCOC(=O)Cc1csc(SCN2C(=O)c3ccccc3C2=O)n1,nt,-0.75
OCC1(CO)CSC(Nc2ccccc2)=N1,-0.3,-0.8
CSc1cccc(NC(=O)C2CCCN2S(=O)(=O)c2ccccc2)c1 (stereo not given),nt,-0.85
CC(NC=O)c1nc2ccccc2n1C (stereo not given),nt,-0.6
O=[N+]([O-])c1ccc(N2CCCCC2)c2nonc12,0.43,nt
CCOC(=O)c1ccc(-n2c(=S)sc3c2nc(SC)n2c4ccccc4nc32)cc1,-0.115,nt
O=C1NC(c2c(F)cccc2Cl)Nc2ccccc21 (stereo not given),82.6,nt

# Continued:
SMILES,Ba CapD inh,AID504770
CC(C)(C)C(=O)Nc1cccc(F)c1C(=O)O,0.17,nt
CC(c1ccccc1)n1c(SCC(=O)c2ccc3c(c2)OCCO3)n[nH]c1=O (stereo not given),-0.13,-0.75
O=C(/C=C/c1ccc2c(c1)OCO2)N/N=C/c1cc2ccccc2o1,2.85,nt
O=C1CCCC2=C1C(c1cccc(Br)c1)Nc1ccccc1N2 (stereo not given),-0.19,-0.3
CCOC(=O)Cc1nc(C)cc(C)n1,-0.02,-0.15
COC(=O)C(C)Sc1nc(N)c(NC(=O)c2ccco2)c(=O)[nH]1 (stereo not given),nt,-0.55
CCOC(=O)C1=C(CSCC(=O)OCc2ccc(C#N)cc2)NC(=O)NC1C (stereo not given),nt,-0.1
Cc1cc(C)c(S(=O)(=O)N(C)CC(=O)NCc2ccco2)c(C)c1,nt,-0.3
CC12COC3(C(=O)Nc4cccc(Cl)c4)CC1CCC32C (stereo not given),-0.42,nt
CCOc1ccc(CN(C)C(=O)C2=NNC(=O)CC2)cc1,nt,-0.3
COC(=O)c1cncn1C(C)c1ccccc1 (stereo not given),-0.085,3
COC(=O)c1c(C)oc2ccc(N(C(=O)c3ccccc3Cl)S(=O)(=O)c3ccc(C)cc3)cc12,0.005,nt
Cc1nnc(SCC(=O)N(c2ccccc2)C(C)C)n(N)c1=O,nt,-1.6
C=CCn1c(C)cc(C(=O)COC(=O)C2CCN(C(=O)Nc3ccccc3)CC2)c1C,nt,-0.25
CC(=O)NCCOc1cc(C)ccc1C(C)C,-0.415,1.25
Cc1nnsc1-c1nnc(C2CCCCC2)o1,-1.15,-0.15
O=C(OCc1cc(-c2ccc(Cl)cc2)on1)c1cccc(C(F)(F)F)c1,-0.195,nt
COC(=O)C1=C(Nc2ccc(OC(=O)Nc3ccc(OC(F)(F)F)cc3)cc2)CSC1,8.06,1.15
CN1C2C=C(N(CCc3c[nH]c4ccccc34)C(=O)c3cc(Cl)cc(Cl)c3)CC1CC2 (stereo not given),-0.83,nt
Cc1nn(-c2ccccc2)nc1C(=O)N1CCC(O)(c2ccc(Cl)cc2)CC1,-0.8,-0.55
Cn1c(=O)n(Cc2ccc(F)cc2)c(=O)c2c1nc1oc(-c3ccc(Cl)cc3)cn12,nt,-1
CC1CCCCC1NS(=O)(=O)c1ccc(Cl)cc1 (stereo not given),-1.03,1.5
O=C(NCCN1CCOCC1)c1nn2c(c1Br)NC(c1ccccc1)CC2C(F)(F)F (stereo not given),0.305,nt
CCOC(=O)C1CCN(Cc2cc(Cl)c3cccnc3c2O)CC1,-0.155,-0.3
CSc1nsc(SC)c1NC(=O)N(C)C,0.125,-0.05

# Next part
SMILES,Ba CapD inh,AID504770
OCC(CO)(CO)N=Cc1cc(Br)ccc1O,-0.79,0.15
CCOC(=O)COc1ccccc1C1C(C(=O)OCC)=C(N)Oc2n[nH]c(-c3ccccc3)c21 (stereo not given),-0.25,0.05
CC(C)(C)C(=O)[C@H]1[C@H](c2ccsc2)C(C#N)(C#N)[C@@H]2c3ccccc3C=CN21,6.94,nt
Oc1oc(-c2ccccc2)nc1/C=N/c1ccccn1,0.735,-0.05
O=C(CSc1nnnn1-c1ccccc1)N1CCCC1,0.35,1
COc1ccc(OCC(Cn2cnc3ccccc32)OC(C)=O)cc1 (stereo not given),-0.475,-1.55
CCOC(=O)c1c(NC(C)=O)no[n+]1[O-],-1.53,0.15
COc1ccc(N2C(=O)/C(=C/c3cc(Br)c(N4CCOCC4)o3)C(=O)NC2=S)cc1,-0.115,nt
CS(=O)(=O)c1ccc(Cl)c(NC(=O)C2CCCC2)c1,nt,0.15
CC(C)CCn1c(SCc2ccccc2F)nc2nccnc2c1=O,-0.065,-1.9
CCN(CC)C(=O)c1c2c(nc3ccccc13)CCCC2,0.2,0.3
Cc1ccc2c(c1)CCCN2CC(=O)NCC(F)(F)F,nt,1.1
CC(Sc1nc(C2CC2)n(-c2ccccc2)n1)C(=O)NCc1ccc2c(c1)OCO2 (stereo not given),nt,0.4
COc1ccc(-c2[nH]ncc2C(=O)NC2CCCCC2)cc1,-0.22,1.45
CC(=O)n1c(SCC(=O)Nc2ccc(C(C)C)cc2)nc2ccccc21,-0.44,nt
CCOC(=O)c1c(-c2ccccc2)oc2ccc(NS(=O)(=O)c3cc([N+](=O)[O-])ccc3Cl)cc12,0.51,nt
Clc1ccc(-c2cc3nnc(-c4ccccc4)nc3s2)cc1,-0.605,1.9
CC1(C)OC(=O)C(C#N)=C1/C=C/c1ccco1,-2.37,0.9
Cc1noc(C)c1CSc1ncccc1C(=O)N1CCN(S(=O)(=O)c2ccccc2C#N)CC1,nt,-0.2
O=C(c1ccc(F)cc1)c1c[nH]c(C(=O)NCc2ccco2)c1,-0.805,1.95
C=CCN(C(=O)c1ccccc1)c1ccc(OC)cc1,0.025,-1.15
O=C(NC1CCCCC1)c1ccco1,nt,-0.3
CC(C)Oc1ccc(Cc2cnc(=S)[nH]c2N)cc1,nt,-0.6
Cc1nn(-c2ccc(F)cc2)c(-n2cccc2)c1C(=O)NCC(C)c1ccccc1 (stereo not given),-0.485,-1.9
CCOC(=O)C1=C(C)NC(=O)CC1c1ccccc1C(F)(F)F (stereo not given),0.155,-1.1

# Two of the compounds above, bar-delimited.
molecule | Ba CapD inh | AID504770
O=C(OCc1cc(-c2ccc(Cl)cc2)on1)c1cccc(C(F)(F)F)c1 | -0.195 | nt
CC1Cc2cc(S(=O)(=O)NCc3ccccc3)ccc2N1C(=O)C1CC1 (stereo not given) | -0.06 | 0.9

# Going on with the list.
SMILES,Ba CapD inh,AID504770
O=C1c2ccccc2C(=O)N1CCCn1nnc(-c2ccc(N3CCOCC3)cc2)n1,nt,-0.1
c1ccc2cc3c(Nc4ccc(N5CCOCC5)cc4)ccnc3cc2c1,1.4,-0.65
CCOc1ccc(-n2c(N)c3c(N)nc(N4CCOCC4)c(C#N)c3c(C#N)c2=S)cc1,nt,-0.45
O=C(O)c1c(F)c(F)c(F)c(F)c1C(=O)O,-0.555,-0.35
O=C(c1ccccc1F)N1c2ccccc2CCc2ccccc21,-0.24,nt
COc1ccc(C=C2C(=O)NC(=O)NC2=O)cc1OC,0.83,nt
CC(=O)N1C(=O)/C(=C2\SC(=S)N(NC(=O)c3ccc(O)cc3)C2=O)c2ccccc21,-1.48,nt
CCCCCCCCCCCOc1ccc(C(=O)Oc2ccc(OCCCCCCCC)cc2)cc1,-0.12,nt
Cc1ccc(Oc2ncccc2C(=O)n2ccc(-c3cccs3)n2)cc1,-0.21,-0.1
NC(=O)C1CC(=O)N(Cc2ccccc2)C1 (stereo not given),-0.51,0.1
C=CCn1c(CCC)nc2ccccc21,-0.085,-0.65
N=c1c2c3c(sc2ncn1CCN1CCOCC1)CCCCC3,nt,-1.8
CC(C)c1ccc(C2/C(=C(/O)c3ccc(F)cc3)C(=O)C(=O)N2c2nncs2)cc1 (stereo not given),-0.83,nt
O=S(=O)(NCC12CC3CC(CC(C3)C1)C2)c1ccc(Cl)c2ccccc12,0.375,0.1
C=CCSc1nnc2c3ccccc3n(CCc3ccccc3)c2n1,-0.285,nt
CC(C)(C)c1cc(C#N)c(OC(=O)c2ccc(C(F)(F)F)cc2)c(C#N)c1,84.3,nt
N#CC1=C(N)C(C#N)(C#N)C(c2ccc(O)cc2)C2CCCC=C12 (stereo not given),-0.135,nt
Clc1ccc(CN2CCN(c3cccc4[nH]ccc34)CC2)cc1Cl,-0.4,1.25
CCOc1cc(C2C3=C(CC(C)(C)CC3=O)OC3=C2C(=O)CC(C)(C)C3)cc(Cl)c1O,-0.045,nt
CC(C)Cn1c(SCC(=O)N2CCCC2=O)nc2cc(Cl)ccc2c1=O,nt,0.15
COc1ccc(S(=O)(=O)N2CCN(c3ccc(C(F)(F)F)cc3[N+](=O)[O-])CC2)cc1OC,-0.065,nt
Cc1nc(N2CCN(c3ccccn3)CC2)c2c(C)c(C(=O)Nc3c(F)cccc3F)sc2n1,0.07,nt
Cc1ccc(C)c(Cn2c(CCCO)nc3ccccc32)c1,-1.25,0.75
CCOC(=O)c1ccc(NC(=O)C2CC(=O)N(C)C(=Nc3ccc(C)c(C)c3)S2)cc1 (stereo not given),-0.325,nt
Cc1cccc(-c2cc3nc4c(c(N5CCN(Cc6ccc7c(c6)OCO7)CC5)n3n2)CCCC4)c1,nt,0

# Reformatted with values under each structure: entries from further up
# Results follow in this order: Ba CapD inh	AID504770
C=CCSc1nnc2c3ccccc3n(CCc3ccccc3)c2n1
  -0.285	nt
CC(C)(C)c1cc(C#N)c(OC(=O)c2ccc(C(F)(F)F)cc2)c(C#N)c1
  84.3	nt
N#CC1=C(N)C(C#N)(C#N)C(c2ccc(O)cc2)C2CCCC=C12 (stereo not given)
  -0.135	nt
Clc1ccc(CN2CCN(c3cccc4[nH]ccc34)CC2)cc1Cl
  -0.4	1.25
CCOc1cc(C2C3=C(CC(C)(C)CC3=O)OC3=C2C(=O)CC(C)(C)C3)cc(Cl)c1O
  -0.045	nt
CC(C)Cn1c(SCC(=O)N2CCCC2=O)nc2cc(Cl)ccc2c1=O
  nt	0.15
COc1ccc(S(=O)(=O)N2CCN(c3ccc(C(F)(F)F)cc3[N+](=O)[O-])CC2)cc1OC
  -0.065	nt

# Further entries.
SMILES,Ba CapD inh,AID504770
CC(NC(=O)c1cc2ccccc2n1C)C(=O)Nc1ccc2ccccc2c1 (stereo not given),0.45,nt
CCS(=O)(=O)c1nc2ccccc2n1Cc1ccc(C(C)(C)C)cc1,0.235,2.05
Cc1nc(COC(=O)c2ccc(CO)cc2)cs1,nt,0.35
CN(C)C(=S)N(C#N)c1nc(N(C)C)nc(N(C)C)n1,0.135,-0.3
CC(NC(=O)CSc1ncccc1C(=O)O)C1CC2CCC1C2 (stereo not given),nt,-0.3
CCC1(CO)CSC(Nc2ccc(Cl)cc2)=N1 (stereo not given),nt,-0.65
Cc1ccc(C(=O)OCC(=O)c2ccc(-c3ccccc3)cc2)s1,0.52,0.6
O=C1CC(c2ccccc2)CC(=O)C1=CN1CCOCC1 (stereo not given),nt,-0.05
CCOC(C(=O)O)(c1ccccc1)c1ccccc1,0,-0.3
O=C(CN(CC(=O)NC1CC1)Cc1ccc(Cl)cc1)NC1CC1,nt,0.15
COCc1cc(=O)[nH]c(/N=C(\N)Nc2ccc(Cl)c(Cl)c2)n1,0.22,nt
N#Cc1cnc(Nc2ccc(F)cc2)nc1N,-0.395,2.2
COc1cccc(C2CC(c3ccc(Br)cc3)=NN2C(=O)CCCC(=O)O)c1OC (stereo not given),0.6,nt
COc1ccc(/C=C2/SC(=Nc3ccc(C)cc3)NC2=O)cc1OC,0.055,nt
Cc1ccc(C(=O)N2C(C)CCCC2C)c(Cl)c1 (stereo not given),nt,-0.5
C#CCn1c(SCc2cccc(F)c2)nc(-c2ccccc2)c1-c1ccccc1,0.285,nt
CC(O)(CS(=O)(=O)Cc1ccc(Cl)cc1Cl)c1ccc(Cl)cc1 (stereo not given),-0.245,nt
O=C(CN1CCOCC1)N1CCN(c2ncc(C(F)(F)F)cc2Cl)CC1,-0.125,nt
CCCS(=O)(=O)c1c(S(=O)(=O)CCC)c2cnccn2c1C(=O)c1ccc(C)cc1C,49.4,nt
COC(=O)c1ccsc1-n1cc(C#N)c(=O)n(Cc2ccc(OC)cc2)c1=O,-0.355,nt

# An excerpt; the hit share may differ from the screen's.
